# CtBP-E1A blk – inhibitors of CtBP/E1A interaction | AlphaScreen GST-E1A/His-CtBP binding, 1536-well; hits give low values; control for the full effect not named in the record | activity change, % (no concentration beside the values) | 340,000 compounds, 0.49% hits; in the data active means activity change below about -65%; inconclusive means about -30% to -65%; inactive means above about -30%; also: % is scaled to controls: 0 for no effect and ±100 for the full control effect
#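 GST-E1A and His-tagged CtBP (125 nM each as 5X stock) were preincubated with pin-transferred compound for 2 h at 37 °C in the dark, then glutathione donor and nickel acceptor beads were added for 1 h before AlphaScreen reading.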
# D2 ag – activates the human D2 dopamine receptor; 360,000 compounds, 0.084% hits; P14416; DiscoveRx PathHunter D2 beta-arrestin, luminescence, 90 min; 100% = 57 uM dopamine signal; activation, % (concentration not given with the values); AID 624465; in the data active = activation above about 40%; inconclusive = about 15% to 40%; inactive = below about 15%; also: the text of the record calls up to 30% inactive
#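 Agonist mode: compounds alone added to overnight-plated D2 PathHunter cells for 90 min at 37 C, with 57 uM final dopamine (EC100) defining full response. Beta-arrestin recruitment detected by chemiluminescent reagent, read after 1 h at ambient temperature.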
# TRPML1 agonist – human mucolipin-1 channel agonism; AID 624414; 410,000 compounds, 0.12% hits; Q9GZU1; TRPML1-expressing cells, Ca2+ dye fluorescence, FDSS; host cell line not named in the record; reference of the full effect not given here; activation, % (test concentration not listed); in the data active = activation above about 50%; inconclusive = about 30% to 50%; inactive = below about 30%; also: 0% is about no effect; the text of the record puts the active cut at 80%
#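 Cells: TRPML1-DL, 1X Tet inducer, ~16 h at 37 degrees C/5% CO2. Dye: ABD Ca8 no-wash + quencher, 45-90 min RT. Read: 10 s baseline, compound add, 110 s agonist phase; 54-4 EC80 (4uM final), 110 s antagonist phase.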
# Six1-Eya2 blk – inhibitors of human Six1/Eya2 interaction. Q15475+O00167. AlphaScreen GST-Six1/His-Eya2 binding, biochemical; hits give low values; control for the full effect not named in the record. activity change, % (no concentration beside the values). 360,000 compounds, 0.56% hits; in the data active = activity change below about -65%; inconclusive = about -30% to -65%; inactive = above about -30%; also: % is scaled to controls: 0 for no effect and ±100 for the full control effect
# Target sequence (O00167 whole entry, looked up): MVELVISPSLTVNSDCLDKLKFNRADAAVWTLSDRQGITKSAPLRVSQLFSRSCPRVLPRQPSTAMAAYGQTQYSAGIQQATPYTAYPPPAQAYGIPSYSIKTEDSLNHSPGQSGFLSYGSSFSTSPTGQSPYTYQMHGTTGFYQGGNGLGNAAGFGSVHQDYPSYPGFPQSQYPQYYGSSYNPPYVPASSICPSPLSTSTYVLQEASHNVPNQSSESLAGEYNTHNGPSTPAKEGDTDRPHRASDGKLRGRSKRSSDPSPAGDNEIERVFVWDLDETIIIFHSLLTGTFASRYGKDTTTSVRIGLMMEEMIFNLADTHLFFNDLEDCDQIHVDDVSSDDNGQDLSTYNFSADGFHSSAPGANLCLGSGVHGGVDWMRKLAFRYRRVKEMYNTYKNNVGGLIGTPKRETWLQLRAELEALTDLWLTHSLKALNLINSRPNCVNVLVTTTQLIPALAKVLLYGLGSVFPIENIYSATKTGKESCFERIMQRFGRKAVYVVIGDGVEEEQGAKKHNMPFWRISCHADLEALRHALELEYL
# Target sequence (Q15475 whole entry, looked up): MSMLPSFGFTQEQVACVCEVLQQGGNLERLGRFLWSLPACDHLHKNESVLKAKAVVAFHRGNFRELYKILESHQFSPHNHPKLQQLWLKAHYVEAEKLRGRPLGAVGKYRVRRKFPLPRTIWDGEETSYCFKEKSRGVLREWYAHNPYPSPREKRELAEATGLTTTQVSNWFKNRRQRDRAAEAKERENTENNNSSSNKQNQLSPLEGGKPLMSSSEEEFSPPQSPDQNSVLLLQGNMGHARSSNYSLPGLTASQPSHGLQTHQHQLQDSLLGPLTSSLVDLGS
#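 Six1/Eya2 binding was read as AlphaScreen signal after compounds were pinned into GST-Six1 plus His-tagged Eya2 (5X stock 250/500 nM) in pH 8.0 Tris/NaCl/TCEP buffer, beads added, then incubated 1 h, 37 C, dark.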
# PINK1 modulator – PINK1 expression modulation | AID 624263 | Potency, µM (titrated, usually from 76.6 µM), for inactives: top-dose activation (PINK1 increase), hits mostly activators | PINK1 immunofluorescence, high-content cytometry, 24 h | 410,000 compounds, 0.2% hits; active = well fitted activation curve with a large enough effect; inconclusive = small, poorly fitted or top-dose-only effect; inactive = flat fitted curve, though single readings scatter; cell line not stated here;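 also: potency is read from the fitted curve at half-maximal effect; % of control where 0% means no effect; nearly all actives have a fitted effect of over 65% in size; a mitochondrial uncoupler was the plate control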
#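 Fluorescence from anti-PINK1 antibody, together with nuclear and cell stains, was scanned on a laser-scanning cytometer. Before staining, stable-line cells were incubated 24 hours with compounds at 5 concentrations; primary antibody 12 h at 10 degrees C.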
# D2 potentiator – potentiates the human D2 dopamine receptor allosterically; P14416; DiscoveRx D2 beta-arrestin cells, luminescence, 90 min; 100% = 57 uM dopamine signal; potentiation, % (concentration not given with the values); 360,000 compounds, 0.23% hits; AID 624464; active = potentiation of 50% or more; inconclusive = 30% to 50%; inactive = 30% or less;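 also: tested on top of an EC20 dose of dopamine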
#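 PathHunter D2 cells, attached overnight at 37 deg C, received compound in DMSO plus dopamine at EC20 (50 nM final) for 90 min at 37 deg C. Beta-arrestin recruitment was read as luminescence after 1 h with detection reagent at ambient temperature.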
# An asterisk follows results filed as active; ? = inconclusive; · = not tested or not shown; [ ] = another dose, or the depositor's remark.
Compound,CtBP-E1A blk,TRPML1 agonist,Six1-Eya2 blk,D2 potentiator,PINK1 modulator,D2 ag
COC(=O)CCc1sc(NC2CCCCC2)nc1-c1ccc(OC)cc1,3.1,1.2,-16.8,-27.2,4.8%,-7.6
c1ccc(N2CCN(c3nc4ccccc4n4nnnc34)CC2)cc1,14.2,-0.1,8.6,19.0,2.8%,-0.5
O=C(CSc1nnnn1-c1ccccc1)NC(=O)Nc1ccc2c(c1)OCCO2,-6.7,5.8,1.4,-6.6,1.9%,-1.5
CN(C(=O)c1cccc(NC(=O)Cc2ccc(NC(=O)C3CCCN(S(=O)(=O)c4cccc([N+](=O)[O-])c4)C3)cc2)c1)C1CCC1 (stereo unspecified),-11.1,0.3,-5.7,15.9,1.2%,5.6
Cc1ccccc1-c1cc2nc(NCc3cccnc3)n(C)c(=O)c2s1,-5.1,1.7,-13.9,-17.7,3.5%,-4.0
CSc1ccccc1OCc1cc(C(=O)N2CCNC(=O)C2)no1,21.0,-0.1,2.1,0.2,0.8%,-3.8
COc1ccc2oc(=N)c(C(=O)Nc3ccc(C)cc3)cc2c1,·,·,12.2,4.2,11.1%,-1.5
Cc1onc(-c2c(F)cccc2Cl)c1C(=O)Nc1ccc(S(=O)(=O)N2CCOCC2)cc1,3.6,1.1,-0.3,-10.2,0.3%,-1.5
COc1ccc(NC(=O)CCNC(=O)N2CC(=O)Nc3ccccc32)c(OC)c1,7.6,0.2,15.8,-9.1,0.5%,0.2
Cc1noc(C)c1C(=O)Nc1ccc2ccccc2c1,-0.1,1.2,0.7,-17.1,0.5%,-3.3
COc1ccc(-c2nn3c(-c4ccc(F)cc4)nnc3s2)cc1,-0.5,0.0,-6.7,-3.7,6.4%,-3.4
COC(=O)c1cc(NC(=O)C2CC2)cc(C(=O)OC)c1,-9.9,-0.1,-1.3,-0.9,-1.3%,-0.3
N#CCN1C(=O)C2CCCN2c2ccc(S(=O)(=O)N3CCOCC3)cc21 (stereo unspecified),4.9,0.1,-4.1,-2.0,1.6%,-0.9
COc1cc([N+](=O)[O-])ccc1NC(=O)c1cccc(NC(=O)C(C)C)c1,-1.1,0.3,-4.0,-3.1,1.4%,3.7
COc1ccc(Cn2nnnc2CN2CCCCCC2)cc1,0.8,4.8,-1.1,-6.7,-1.3%,0.4
COc1ccc(CNC(=O)COC(=O)c2ccc(S(=O)(=O)NCc3ccco3)cc2)cc1,9.4,-0.5,-7.9,-0.5,3.2%,2.1
O=C(NCc1cccnc1)C1CCCN(Cc2cnn(-c3ccccc3)c2-n2cccc2)C1 (stereo unspecified),1.1,-0.9,3.6,-3.0,2.7%,0.9
COc1ccc(C(C)(C)C)cc1NC(=O)C1=CC=CN2CCS(=O)(=O)N=C12,8.5,-0.1,2.2,-4.7,-0.8%,5.7
Cc1cc2c(=O)n(CC(=O)NCC(=O)N3CCN(Cc4ccccc4)CC3)cnc2s1,-0.3,-0.4,-11.7,2.8,-1.7%,-4.9
COc1ccccc1NS(=O)(=O)c1cccc(C(=O)OCC(=O)Nc2cc(C)on2)c1,-17.7,-0.7,-18.8,?,-0.4%,-0.4
Cc1cccc(N/C=C(\[N+](=O)[O-])S(=O)(=O)c2ccccc2)c1C,0.0,0.2,11.4,0.3,-1.0%,-4.7
Cc1ccc(-n2cnnn2)c2cccnc12,0.0,0.7,-0.5,-8.3,11.0%[38.3 µM],-0.4
CCN(CC)S(=O)(=O)c1cccc(C(=O)Nc2cccc(C)c2)c1,5.1,1.4,1.5,-21.4,2.1%,-0.7
CCOC(=O)c1c(N)c2cc([N+](=O)[O-])cnc2n1C,-22.6,-0.6,-1.5,-5.3,0.4%,-9.9
COc1ccccc1N1CCN(C2CCCN(C(=O)c3ccoc3C)C2)CC1 (stereo unspecified),0.0,1.1,2.6,-46.5,-1.5%,-3.1
NC(=O)C1CCN(C(=O)c2ccc3nc(N4CCCCC4)sc3c2)CC1,5.7,0.0,2.6,-7.3,1.3%,-2.2
O=C(Nc1ccccn1)c1ccc([N+](=O)[O-])o1,·,0.4,-4.4,-2.8,2.3%,14.6
N#Cc1c(N)n(C2OC(CO)C(O)C2O)c2ncnc(N)c12 (stereo unspecified),9.1,0.0,3.6,-15.4,-4.7%,3.3
CCc1nc(SCC(=O)NCc2ccccc2)c2c(=O)n(C)c(=O)n(C)c2n1,0.3,-0.2,2.9,-0.9,-0.8%,-3.5
Cc1c(Cc2ccccc2)c(=O)oc2cc(OCC(N)=O)ccc12,0.5,0.7,-9.3,-2.5,-0.6%,3.5
CC(C)CN(CC(C)C)C(=O)CC(=O)NC(=O)c1ccc(Cl)cc1,3.7,-0.4,-0.2,-1.0,-2.3%,-3.6
O=C(N/N=C/c1c[nH]c2ccccc12)c1ccccc1Cl,0.7,-1.4,0.1,-4.0,2.0%,0.9
O=C(Cn1ccc2ccccc2c1=O)NCCC(=O)N1CCN(c2cccc(C(F)(F)F)c2)CC1,6.7,-0.5,6.5,1.1,-1.5%,-3.5
COc1cc(-n2c(C)nc3ncn(-c4ccccc4)c3c2=O)cc(OC)c1OC,4.5,-0.3,-15.6,-5.4,2.9%,-4.7
CCOC(=O)N1CCN(c2c(N3CCN(C(=O)OCC)CC3)c(=O)c2=O)CC1,·,-0.1,0.1,-12.7,-0.3%,-3.7
Cc1ccc(C)c(COC(=O)CCN=C2NS(=O)(=O)c3ccccc32)c1,0.1,-0.3,0.3,-13.1,2.9%,0.6
CC(=O)c1cccc(NC(=O)CSc2nc(N3CCOCC3)nc(N3CCOCC3)n2)c1,13.8,0.4,28.7,-22.5,9.4%,-3.8
c1ccc(Cc2c(C3CCCCC3)nc3c4ccccc4ccn23)cc1,-9.0,-0.1,11.8,·,0.3%,·
COCCNc1ccc(-c2nn(C)c(=O)c3ccccc23)cc1[N+](=O)[O-],·,0.6,-0.3,4.4,0.9%,9.4
Cc1cccc(-n2ccnc2CN2CCN(C(C)C)C(CCO)C2)c1 (stereo unspecified),1.7,0.4,4.0,-11.2,0.4%,-1.8

# Among those listed so far, 3 contain a Cl atom.
Compound,CtBP-E1A blk,TRPML1 agonist,Six1-Eya2 blk,D2 potentiator,PINK1 modulator,D2 ag
Cc1onc(-c2c(F)cccc2Cl)c1C(=O)Nc1ccc(S(=O)(=O)N2CCOCC2)cc1,3.6,1.1,-0.3,-10.2,0.3%,-1.5
CC(C)CN(CC(C)C)C(=O)CC(=O)NC(=O)c1ccc(Cl)cc1,3.7,-0.4,-0.2,-1.0,-2.3%,-3.6
O=C(N/N=C/c1c[nH]c2ccccc12)c1ccccc1Cl,0.7,-1.4,0.1,-4.0,2.0%,0.9

# (list continues)
Compound,CtBP-E1A blk,TRPML1 agonist,Six1-Eya2 blk,D2 potentiator,PINK1 modulator,D2 ag
COc1cc(C(=O)OCC(=O)NCc2ccc(F)cc2)ccc1OCC(C)C,7.3,2.1,-1.2,0.0,?,-4.5
Cc1ccc(S(=O)(=O)N2[C@@H](c3ccc(Cl)c(Cl)c3)C(C(=O)O)=C[C@H]2CC2CCCC2)cc1,6.7,3.5,-0.3,·,-0.8%,-0.7
CCN1CCCC1Cn1cnc2c([nH]c3ccc(OC)cc32)c1=O (stereo unspecified),-5.5,1.1,-0.8,-1.8,2.0%,0.3
O=C(c1ccc(OC2CCN(Cc3ccccn3)CC2)cc1)N1CCCCO1,2.8,0.1,8.7,-0.2,-0.4%,-0.8
O=C1c2ccccc2C(=O)N1CCSc1ncn[nH]1,10.2,-0.7,-15.7,-6.3,-1.2%,-2.7
Nc1nc(NS(=O)(=O)c2ccc(Cl)cc2)nn1-c1ccccc1,-0.3,0.6,9.4,-2.0,-0.3%,-1.0
O=C(Nc1ccon1)c1cccc(S(=O)(=O)N2CCCCCC2)c1,-16.0,0.6,-2.5,-11.1,4.6%,-0.6
Nc1c(C(=O)N2CCCCC2)sc2nc3c(cc12)CCCC3,-0.7,2.7,-2.0,-1.4,0.8%,9.8
Cc1cc(C2(c3cc(C)c(NC(=O)CN4CCOCC4)c(C)c3)CCCCC2)cc(C)c1NC(=O)CN1CCOCC1,3.3,-0.5,-0.3,-8.0,2.3%,-0.7
CC(C)CC(=O)NC(Nc1ccc([N+](=O)[O-])cc1)C(Cl)(Cl)Cl (stereo unspecified),10.3,0.6,-22.5,-8.8,?,0.0
Cc1cccc(C(=O)N2CCN(S(=O)(=O)N3CCCCCC3)CC2)c1,2.7,-0.5,0.9,-4.0,1.4%,0.6
CN(CCC#N)C(=O)c1cc2c(Cl)nc3ccccc3c2s1,1.7,-1.5,0.4,0.2,5.6%,0.9
CN1CCN(S(=O)(=O)c2ccc(SCCOc3ccc(Cl)cc3)nc2)CC1,-1.3,9.9,-14.7,1.8,-0.6%,2.0
CSc1cccc(NC(=O)c2ccc(NC3=NC4CS(=O)(=O)CC4S3)cc2)c1 (stereo unspecified),-1.8,-0.4,-1.0,-6.1,-0.1%,-3.7
Cc1cc(=O)[nH]c2cc(O)ccc12,8.6,0.5,0.5,2.0,·,-1.2
Cc1ccc(C)c2c1CCCC2=O,-16.0,-0.5,-3.5,-11.8,2.8%,-5.8
COc1ccc(NC(=O)N2CCCC2C(=O)NC2CCCC2)cc1 (stereo unspecified),9.9,-0.5,-4.8,-3.2,0.1%,0.4
COc1ccc(-c2cc(=O)[nH][nH]2)cc1,-10.2,-0.9,1.5,-19.0,-1.3%,-7.0
O=C(COC(=O)c1ccccc1Br)NCCC1=CCCCC1,-11.8,3.0,22.9,-10.9,1.6%,0.4
Cc1cc(-c2ccccc2)cc(-c2ccccc2)[n+]1C,-1.7,0.4,5.6,-4.4,0.9%,2.1
O=C(C1=C(O)C(=O)N(c2ncccn2)C1c1cccc(Cl)c1)c1ccco1 (stereo unspecified),-4.3,-0.5,-0.2,-3.0,5.3%[38.3 µM],-0.9
COc1ccc(C(=O)COC(=O)c2c(-c3ccccc3)noc2C)c(OC)c1,3.0,1.1,0.1,-7.1,-0.7%,-1.4
COc1ccc(NC(=O)CN2C(=O)C(C)SC(C)C2=O)cc1 (stereo unspecified),3.3,-0.3,-2.1,-8.3,0.6%,-6.2
c1cnc2ccc(C(c3nnnn3C3CCCC3)N3CCN(c4nc5ccccc5s4)CC3)cc2c1 (stereo unspecified),-6.3,2.0,-10.0,-3.1,-2.1%,-2.4
Cc1cc(NS(=O)(=O)c2ccc(Nc3nc(-c4ccc(O)cc4)cs3)cc2)no1,?,2.0,?,23.0,-0.7%,0.0
CC1(C(=O)Nc2ccccc2)CCN1C(=O)CCc1ccc(Cl)cc1Cl (stereo unspecified),9.4,-0.5,7.7,-6.8,1.6%,-5.4
CCOC(=O)C(C(=O)OCC)C(C)(C)/C(C)=N\Nc1ccc([N+](=O)[O-])cc1[N+](=O)[O-],0.8,1.5,?,7.8,-0.7%,7.1
